Assay outcomes deposited in PubChem by several laboratories.
AF4-AF9 inh: inhibitors of human MLL-AF4/AF9 interaction | P42568 | AlphaScreen, biotin-AF4 peptide binding to FLAG-AF9 | inhibition, % at 10 µM | 0.47% of 350,000 active | AID 651704;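 active means every replicate reaching a set inhibition limit, whatever the replicate mean, cut at about 25% in these data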;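 further: 0% = plate neutral control median and 100% = total signal loss; the record names both 10 and 1 µM as test concentration; the first replicate is given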
Target sequence (P42568 whole entry, looked up): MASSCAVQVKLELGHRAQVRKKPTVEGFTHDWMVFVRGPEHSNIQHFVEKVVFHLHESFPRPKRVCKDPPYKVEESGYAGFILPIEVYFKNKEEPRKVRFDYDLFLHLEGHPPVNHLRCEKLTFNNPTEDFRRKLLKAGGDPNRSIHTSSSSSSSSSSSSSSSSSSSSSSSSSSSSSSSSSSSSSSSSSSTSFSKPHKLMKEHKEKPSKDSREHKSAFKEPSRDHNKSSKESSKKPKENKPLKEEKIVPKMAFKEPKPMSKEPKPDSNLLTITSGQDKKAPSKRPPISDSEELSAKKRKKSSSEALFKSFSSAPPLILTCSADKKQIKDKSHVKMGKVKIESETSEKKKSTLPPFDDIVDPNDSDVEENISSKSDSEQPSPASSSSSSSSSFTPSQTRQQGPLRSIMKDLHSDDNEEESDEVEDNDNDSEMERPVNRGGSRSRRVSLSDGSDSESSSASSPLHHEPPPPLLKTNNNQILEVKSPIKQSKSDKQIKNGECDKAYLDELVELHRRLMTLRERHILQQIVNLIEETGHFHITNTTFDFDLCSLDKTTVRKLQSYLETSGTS
rRNA inh HTS: inhibits bacterial ribosomal RNA function over humanized ribosomes. E. coli WT GFP vs humanized-ribosome RFP mutants, fluorescence, 24 h; active compounds read low; DMSO median 0, no signal -100. GFP signal change (wild-type ribosome), % (no concentration beside the values). 1.6% of 350,000 active. AID 720706;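 active means significant combined selectivity score with lowered wild-type GFP, culture density cut under 30%, mutant RFP and density less affected; inactive means any of these conditions unmet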; further: one replicate is shown; some compounds called inactive have numbers as strong as hits
E coli growth: blocks Escherichia coli growth | 0.21% of 330,000 active | OD600 absorbance (test concentration not listed) | OD600, 23 h; active compounds read low;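 active means OD600 absorbance below the run mean of sample wells minus 3.6 SD, in any replicate, cut at about 0.56 in these data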;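 further: stock transfer was 300 nL into about 60 µL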
FGF22 binding: binders of recombinant human FGF22 by thermal shift. SYPRO orange fluorescence; percent of sucrose octasulfate shift, DMSO zero. calls only at 9.99 µM. 1.5% of 340,000 active;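 active means melting point raised past a set limit in the mean and every replicate; three in four hits are not shown here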
Vif A3G: inhibitors of Vif binding to APOBEC3G peptide, primary screen, biochemical, TR-FRET, GST-Vif 1-94, biotin-A3G peptide, dose response retest (AID 1117319). TR-FRET GST-Vif / biotin-A3G peptide binding; higher % means a stronger effect; test concentration not given here; strong numbers were not always called active. one-dose inhibition, %; IC50 in µM for titrated hits. 0.57% of 260,000 active;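 active means above the screen mean plus three standard deviations and confirmed in dose response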;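 further: Vif residues 1-94 fused to GST binding biotinylated APOBEC3G peptide 110-148; 0% = full assay without inhibitor and 100% = GST in place of GST-Vif; retest series ran down from 100 µM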
HNF4A DNA FP: change in binding of human HNF4 alpha to DNA. P41235. 0.3% of 360,000 active. AID 1224865. activity change, % at 10 µM. HNF4a-FITC DNA binding, fluorescence polarization, 1 h; in the data active means activity change above about 30%, passing the limit was not always enough;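 further: controls were the assay level and a saturating level of protein; the project sought stronger binding though the title names inhibitors; some compounds called inactive have numbers as strong as hits; positive values seem to mean higher polarization but the record does not say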
Target sequence (P41235 whole entry, looked up): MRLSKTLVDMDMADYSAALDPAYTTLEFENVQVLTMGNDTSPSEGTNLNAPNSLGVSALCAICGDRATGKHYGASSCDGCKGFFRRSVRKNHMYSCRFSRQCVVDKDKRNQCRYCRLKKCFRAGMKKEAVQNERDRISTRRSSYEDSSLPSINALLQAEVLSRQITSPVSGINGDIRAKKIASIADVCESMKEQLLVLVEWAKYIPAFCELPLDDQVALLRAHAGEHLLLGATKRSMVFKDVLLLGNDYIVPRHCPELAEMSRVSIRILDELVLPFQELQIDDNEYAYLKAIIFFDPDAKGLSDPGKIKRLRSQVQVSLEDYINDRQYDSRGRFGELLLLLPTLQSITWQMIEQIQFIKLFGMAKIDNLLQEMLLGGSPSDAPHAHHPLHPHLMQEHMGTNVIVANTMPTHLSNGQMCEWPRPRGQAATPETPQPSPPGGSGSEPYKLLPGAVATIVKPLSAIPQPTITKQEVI
ALR inh: inhibitors of human sulfhydryl oxidase ALR; P55789; purified ALR, DTT oxidation, H2O2 HRP-luminol luminescence; inhibition, % (test concentration not listed); 3.8% of 290,000 active;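 active means mean and each replicate at 75% or more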;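 further: stock transfer was 7.5 nL into about 7.5 µL; 0% = neutral wells and 100% = wells with inactivated enzyme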
rRNA inh HTS OD600: also measured in rRNA inh HTS; calls as there; OD600 change, %; measured here: OD600 growth;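 optical density of the mix in the first replicate; 0 = DMSO median and -100 = no signal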
rRNA inh HTS RFP: further read-out of rRNA inh HTS, marked with its call; RFP signal change, %; measured here: RFP humanized mutant strains;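 first replicate; 0 = DMSO median and -100 = no signal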
* marks the source's active call; other numbers are inactive results; i = inactive; . = no result given; & = joins results of further samples. Some of the compounds tested; count on the stated rates, not on these rows.

SMILES | AF4-AF9 inh | rRNA inh HTS | rRNA inh HTS OD600 | rRNA inh HTS RFP | E coli growth | FGF22 binding | Vif A3G | HNF4A DNA FP | ALR inh
NS(=O)(=O)c1cccc(NC(=O)COC(=O)c2cc(-c3ccc(Cl)cc3)nc3ccccc23)c1 | 4.6 | -18.5 | -25.1 | 0.5 | 0.739 | i | -1.5% | 0.4 | 0.8
Cc1noc(C)c1S(=O)(=O)N(C)C[C@H]1OCCCC[C@@H](C)Oc2ccc(NC(=O)C3CCCCC3)cc2C(=O)N([C@H](C)CO)C[C@@H]1C | 0.2 | 1.5 | 3.3 | -3.0 | . | i | . | . | .
O=C(CCc1[nH]c2ccccc2c1Sc1ccccc1)N(CCO)CCO | 0.1 | -34.3 | -42.2 | -4.1 | 0.686 | i | 3.1% | -1.1 | 99.0*
O=C(CN1CCCC1)N/N=C/c1ccc(-c2cccc(Cl)c2)o1 | . | . | . | . | . | . | -3.8% | 1.7 | 0.1
CCCCN(C)Cc1c(C)[nH]c2ccc(Cl)cc2c1=O | 4.8 | -0.1 | 0.5 | 1.9 | 0.702 | i | 3.8% | 4.3 | -4.6
CC(C)C(=O)Nc1ccc2c(c1)C(=O)N(C)[C@H]1CC[C@@H](CC(=O)NCCCN(C)C)O[C@@H]1CO2 | -11.2 | 2.0 | 2.2 | -0.8 | . | i | . | . | .
CCn1cc(C(=O)O)c(=O)c2cc(Br)ccc21 | . | . | . | . | 0.557* | . | 17.2% | 0.4 | -8.9
C[C@H](CO)N1C[C@H](C)[C@H](CN(C)Cc2ccc(Cl)c(Cl)c2)Oc2ccc(NC(=O)Nc3ccc(F)cc3)cc2C1=O | -3.7 | 0.2 | -5.9 | 0.0 | . | i | . | . | .
CCOC(=O)C(c1ccccc1)C(Nc1cc(C(F)(F)F)cc(C(F)(F)F)c1)c1ccccn1 (centres undefined) | 15.5 | 1.2 | 5.5 | -3.6 | 0.654 | i | -11.7% | -1.4 | -3.7
Cc1nc2ncnn2c(C)c1CCC(=O)Nc1ccc(S(=O)(=O)N2CCCCCC2)cc1 | . | . | . | . | 0.629 | . | -1.3% | 1.0 | -17.7
Clc1ccccc1-c1cc(COc2ccc3ccccc3c2)no1 | . | . | . | . | 0.672 | . | -5.7% | 7.2 | 1.9
CC(=O)N(C)C[C@H]1Oc2cc(-c3ccc(F)cc3)ccc2S(=O)(=O)N([C@@H](C)CO)C[C@@H]1C | 0.4 | -5.6 | 0.1 | -1.9 | . | i | . | . | .
O=S1(=O)CCOC[C@H](CC2CCCCC2)N1Cc1ccc(F)cc1 | -0.9 | -16.8 | -12.8 | -9.9 | . | i | . | -5.2 | -1.4
Cc1ccc(S(=O)(=O)Nc2ccc3c(c2)CC(=O)N([C@H](C)CO)C[C@@H](C)[C@@H](CN(C)C(=O)Nc2cccc4ccccc24)O3)cc1 | -2.0 | 0.6 | -5.0 | 3.4 | . | i | . | . | .
Cc1cccc(C)c1OCC(=O)Nc1cc(Cl)ccc1-n1cncn1 | -0.1 | -4.3 | -0.4 | -0.4 | 0.665 | i | 3.6% | 0.8 | -2.6
C[C@H](CO)N1C[C@H](C)[C@H](CN(C)C(=O)c2ccc(F)cc2)Oc2cc(C3=CCCCC3)ccc2S1(=O)=O | 5.2 | 2.0 | -2.4 | -7.1 | . | i | . | . | .
COc1ccc(-c2ccc3c(c2)C2CC3CCN2)cc1 (centres undefined) | 3.5 | 23.4 | 6.8 | 2.6 | . | i | . | -2.0 | .
CO[C@@H]1CN(C)C(=O)c2cc(NC(=O)Nc3cc(F)ccc3F)ccc2OC[C@@H](C)N(C(=O)c2cnccn2)C[C@@H]1C | -0.1 | -2.2 | -3.2 | -0.6 | . | i | . | . | .
CC(=NNc1nc2ccccc2o1)c1cc2ccccc2cn1 | 0.2 | -21.8* | 4.8* | 7.7* | . | i | 2.0% | 16.9 | .
CCOC(=O)c1cc(S(=O)(=O)NC2CCCCC2)cn1C | -4.3 | 10.3 | 10.1 | -0.3 | 0.699 | i | . | 5.7 | 0.0
CCCn1cnc2cc(NCc3ccc(Br)cc3)ccc21 | 15.9 | -53.6 | -76.6 | -16.5 | 0.618 | i | -8.2% | -1.7 | 44.2
CC(=O)NC1CC2CCCC(C1)N2C(=O)Nc1ccccc1 (centres undefined) | . | . | . | . | 0.725 | . | 10.6% | 6.5 | -1.2
CN=C1CC(SC)=C1c1ccc(C)cc1 | . | . | . | . | 0.732 | . | 7.0% | 1.4 | -6.6
O=C(CSc1nnc2ccc(-c3ccco3)nn12)Nc1ccccc1F | -0.5 | -0.2 | 2.8 | -1.8 | 0.721 | i | 16.2% | -7.9 | .
CCCCc1cc(=O)oc2cc(OCC(=O)NC(Cc3c[nH]c4ccc(O)cc34)C(=O)O)ccc12 (centres undefined) | -6.5 | . | . | . | 0.716 | i | . | 3.3 | 2.3
C[C@@H]1CN([C@@H](C)CO)C(=O)c2cccc(NS(=O)(=O)c3ccccc3)c2O[C@H]1CN(C)Cc1ccc(-c2ccccc2)cc1 | 3.5 | 4.2 | 3.8 | -0.7 | . | i | . | . | .
Cc1ccc(O)c(C(=O)/C=C/c2ccc3c(c2)OCCO3)c1 | 6.7 | -9.9 | -6.2 | -2.1 | . | i | 4.6% | -0.9 | 37.5
CN(C)C(=O)c1ccc(-c2ccc([C@H]3[C@H](CO)N4CCCCN(C(=O)C5CC5)C[C@@H]34)cc2)cc1 | -3.4 | 1.7 | 16.8 | -1.4 | . | i | . | . | .
CC(O)CNc1nc(NCc2ccccc2)c2cnn(C)c2n1 (centres undefined) | -0.6 | 4.7 | 8.8 | -2.4 | 0.689 | i | . | 0.6 | 3.2
CCc1nc2c(OCc3ccc(F)cc3)cccn2c1N(C)C(=O)c1ccco1 | 2.2 | 4.6 | -15.4 | 3.5 | . | i | . | 4.7 | .
Nc1nnnn1/N=C/C=C/c1ccccc1 | . | . | . | . | . | . | 25.7% | 0.3 | -0.2
CC(C)n1nc(C(=O)Nc2nc3ccccc3[nH]2)c2ccccc2c1=O | -9.1 | -9.6 | -14.2 | 0.1 | 0.655 | i | -5.5% | 3.3 | -3.2
CCOc1ccc(N(CC(=O)NCc2ccc(F)cc2)S(=O)(=O)c2c(C)noc2C)cc1 | -4.3 | 3.0 | 5.0 | 10.6 | 0.759 | i | 70.3% | 0.9 | 12.8
O=C(COC(=O)c1cnccn1)Nc1ccc(Cl)cc1C(F)(F)F | -0.4 | 13.4 | 12.5 | -1.5 | 0.691 | i | -4.1% | 4.2 | .
CC(C)(O)C#Cc1ccc([C@@H]2[C@H](CO)N3CCCCN(C(=O)c4ccncc4)C[C@@H]23)cc1 | -5.4 | 7.2 | 6.0 | -1.4 | . | i | . | . | .
CCOC(=O)c1cn2ccc(C)cc2n1 | 0.4 | 7.0 | 2.7 | 0.3 | 0.662 | i | -3.5% | -5.9 | -1.4
Cc1ccc(C(OCC(O)CN2CCCCC2CO)c2ccccc2)cc1 (centres undefined) | 2.7 | 2.2 | -8.7 | 3.2 | 0.677 | i | 8.0% | 1.6 | 0.2
CCOc1ccccc1-c1cc(NC)ncn1 | 1.4 | 8.3 | 4.3 | 0.3 | . | i | . | 4.3 | .
Cc1ccc(C(O)c2nc3ccccc3n2C(C)C)cc1 (centres undefined) | . | . | . | . | 0.704 | . | 9.2% | 0.5 | 0.0
CCn1c(-c2ccccn2)nc2cc(S(=O)(=O)N(C)C)ccc21 | 1.2 | 3.0 | -3.2 | 4.1 | 0.642 | i | -5.2% | 2.8 | 99.0*
CCC(C)n1c(SCC(=O)Nc2ccc3[nH]c(=O)[nH]c3c2)nc2ccccc2c1=O (centres undefined) | 1.9 | -24.1 | -36.5 | -9.0 | 0.655 | i | 6.6% | -2.5 | 0.9
CCOc1ccc(N(CC(=O)NC2CCCCC2)C(=O)CCC(=O)Nc2cc(C)ccn2)cc1 | -0.6 | 5.5 | 5.8 | -7.9 | 0.672 | i | . | 1.4 | 0.8
CC(C)[C@H](NC(=O)NC1CCCc2ccccc21)C(=O)O (some centres undefined) | . | . | . | . | 0.704 | . | -2.1% | 0.8 | 0.8
O=C(C[C@H]1C=C[C@H](NS(=O)(=O)c2ccc(F)cc2)[C@@H](CO)O1)NC1CCC1 | -4.8 | 3.5 | -1.4 | -1.8 | . | i | . | . | .
CC(C)CN(C(=O)COC(=O)CCN1C(=O)c2ccccc2C1=O)C1CCS(=O)(=O)C1 (centres undefined) | . | . | . | . | 0.708 | . | 4.9%&-11.0% | 3.4 | -15.5
CCc1nnc(NC(=O)CCN(c2cc(C)cc(C)c2)S(=O)(=O)c2ccc(Cl)cc2)s1 | 0.8 | 13.7 | 4.3 | -6.3 | 0.712 | i | 5.7% | -2.0 | -11.7
O=C(NCCc1ccccc1)c1cccs1 | . | . | . | . | 0.723 | . | -1.6% | 2.2 | 0.5
NC(=O)NC(CC(=O)NCCc1ccccn1)c1ccccc1Cl (centres undefined) | -1.3 | 5.8 | 2.5 | -1.6 | 0.678 | i | . | -2.4 | .
O=C1CN(c2ccc(Br)cc2)C(=O)N1CC(=O)N1CCCc2ccccc21 | . | . | . | . | 0.695 | . | -0.8% | 2.0 | -6.5
O=C(Nc1ccc(SC(F)F)cc1)C12CCC(CC1)C2 | -6.0 | 12.9 | 1.9 | -2.9 | 0.69 | i | . | -3.1 | -17.4

The listing continues:
SMILES | AF4-AF9 inh | rRNA inh HTS | rRNA inh HTS OD600 | rRNA inh HTS RFP | E coli growth | FGF22 binding | Vif A3G | HNF4A DNA FP | ALR inh
C[C@H](CO)N1C[C@H](C)[C@@H](CN(C)Cc2ccc(C(=O)O)cc2)Oc2ccc(NC(=O)CCCN(C)C)cc2C1=O | -0.5 | 2.0 | 3.8 | -0.6 | . | i | . | . | .
CC(=O)NC12CC3CC(C1)CC(C(=O)Oc1ccc(N(C)S(=O)(=O)c4cc(C)ccc4C)cc1)(C3)C2 | 2.4 | 12.8 | 2.8 | -2.8 | 0.658 | i | 0.1% | 1.3 | 1.2
Cc1ccc(C)c(NC(=O)CCc2ccc(C)o2)c1 | 2.7 | 10.6 | 5.0 | -3.4 | 0.687 | i | 1.3% | -3.0 | 8.3
CCN1C(=O)[C@H]2[C@@H](c3ccc(C)cc3)N3C(=O)N(c4ccc(OC)cc4)C(=O)[C@@]3(Cc3ccccc3)[C@H]2C1=O | 0.3 | 1.7 | -1.3 | -9.8 | . | i | . | 0.4 | -0.2
Cc1ccc(CNS(=O)(=O)c2c(C)[nH]c(C)c2C(=O)N2CCCCC2)o1 | -1.9 | 1.8 | 9.2 | 7.3 | 0.722 | i | -2.8% | -1.4 | 8.8
CCc1c(-c2ccccc2)nc2sc3c(c2c1N)CCCC3 | -5.5 | 16.4 | -4.4 | 1.3 | 0.645 | i | -142.6% | -1.6 | 2.7
CCCNC(=O)N1C[C@@H](C)[C@H](OC)CN(C)C(=O)c2cc(NC(=O)CCC)ccc2OC[C@H]1C | -3.1 | 2.9 | 1.9 | -1.7 | . | i | . | . | .
CSc1ccc(Cl)c(C(=O)Nc2ccc(N3CCOCC3)cc2)c1 | 6.7 | 11.7 | 6.7 | -6.2 | 0.665 | i | . | 1.6 | 1.2
O=S(=O)(NCCC(c1ccc(F)cc1)c1ccco1)c1ccccc1 (centres undefined) | . | . | . | . | 0.703 | . | . | 1.1 | 0.1
COc1ccc2c3c(n(C)c2c1)[C@@H](CO)N(C(=O)c1ccccc1)CC31CCN(C(C)=O)CC1 | -1.3 | 2.2 | 3.4 | -1.8 | . | i | . | . | .

Two records picked at random from the list so far, as already listed:
SMILES | AF4-AF9 inh | rRNA inh HTS | rRNA inh HTS OD600 | rRNA inh HTS RFP | E coli growth | FGF22 binding | Vif A3G | HNF4A DNA FP | ALR inh
CSc1ccc(Cl)c(C(=O)Nc2ccc(N3CCOCC3)cc2)c1 | 6.7 | 11.7 | 6.7 | -6.2 | 0.665 | i | . | 1.6 | 1.2
CCn1cc(C(=O)O)c(=O)c2cc(Br)ccc21 | . | . | . | . | 0.557* | . | 17.2% | 0.4 | -8.9
